Screening results as filed in PubChem.
SARS PLP yeast: inhibitors of SARS-CoV papain-like protease in yeast. Potency, µM (doses to about 32.9 µM), for the others: at the top dose activity, positive = growth rescue. S. cerevisiae expressing SARS-CoV PLpro, growth rescue; control for the full effect not named in the record. 330,000 tested, 0.19% active; active means well fitted rising curve with a large enough effect; inconclusive means small, poorly fitted or top-dose-only effect; inactive means no such curve, though single readings can be large or run the other way; note: 0% is about no effect; nearly all actives have a fitted effect of over 55% in size; growth read by luminescence after 48 h
2A StopGo: FMDV 2A StopGo reporter, luciferase signal. 410,000 tested, 1.2% active. Potency, µM (titrated, usually from 57.9 µM), for the others: at the top dose signal change, negative = less light. human cells with a luciferase reporter of 2A StopGo recoding; control for the full effect not named in the record. AID 1159524; active = well fitted falling curve with a large enough effect; inconclusive = small, poorly fitted or top-dose-only effect; inactive = no such curve, though single readings can be large or run the other way; tested in HEK293T cells; note: % is set by controls: 0 for no effect and ±100 for the full control effect; nearly all actives have a fitted effect of over 45% in size; luciferase light after 4 h
RE007 growth inh: less growth of the S. pombe RE007 Vpr strain. S. pombe RE007 Vpr strain, BacTiter-Glo ATP luminescence, 24 h; control for the full effect not named in the record. Potency, µM (doses to about 92.2 µM), for the others: at the top dose activity change, negative = less growth. 360,000 tested, 0.21% active. AID 651644; active = well fitted falling curve with a large enough effect; inconclusive = small, poorly fitted or top-dose-only effect; inactive = no such curve, though single readings can be large or run the other way;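 note: % is set by controls: 0 for no effect and ±100 for the full control effect; nearly all actives have a fitted effect of over 50% in size; the assay follows cell death caused by Vpr and the record does not say whether a fall means rescue or toxicity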
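Fission yeast RE007 carrying one integrated HIV-1 vpr copy, seeded at OD 0.01 in PMG+AL medium with 23 nL pinned compound. Grown 24 h at 30 degrees; viability read by BacTiter-Glo luminescence after 5 min.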
Starred values were filed as active, the others as inactive; ? = inconclusive; & = joins results of further samples; [ ] = dose if it differs, or a comment. Potency is the fitted concentration of half-maximal effect.

SMILES	SARS PLP yeast	2A StopGo	RE007 growth inh
COc1cc(CCC(=O)OCC(=O)NCc2ccccc2)cc(OC)c1OC	-3%	-9%	-2%
CC(C)(C)c1cccc(Cn2nnc3ccccc32)c1O	-2%	-28%	-23%
C=CCNC(=O)c1c(CS(=O)(=O)c2ccccc2)noc1C(=O)NCc1ccccc1	-2%	-8%	6%
CC[N+](CC)(CC)CCC(O)(c1ccccc1)C1CCCCC1 (stereo not drawn)	7%	-4%	9%[18.4 µM]
COc1ccccc1NS(=O)(=O)c1ccc(/C=C/C(=O)N2CCN(C(C)=O)CC2)cc1	-4%	5%	3%
CCN(C[C@H]1N[C@@](CC)(C(=O)OC)[C@H]2C(=O)N(C)C(=O)[C@@H]12)C(=O)Nc1ccc(Cl)cc1	-1%	3%	-17%
Cc1ccc(NC(=O)c2ccc3c(=O)n4c(nc3c2)CCC4)cc1F	3%	-7%	0%
O=[N+]([O-])c1cc2c(cc1/C=N/n1cnnc1)OCO2	4%	16%	-7%
COc1ccc2c(c1)[C@H]1[C@H](CO2)[C@H](c2ccccc2)[C@]2(C)C(=O)Nc3ccc(C)cc3C(=O)N12	-15%	-25%	9%
COc1ccc(CNC(=O)C[C@H]2C[C@H](C(=O)N3CCOCC3)[C@@]3(CCC4CCCC4)c4[nH]c5cc(CCC(=O)N(C)C)ccc5c4CCN3C2=O)cc1OC	?	-2%	4%
O=C1[C@@H](Oc2ccccc2)[C@@H](c2cccnc2)N1c1ccccc1	8%	-13%	2%
CC(C)[C@H](N)C(=O)NC[C@H]1O[C@@H](n2cnc3c(N)ncnc32)[C@H](O)[C@@H]1O	-17%	-26%	1%
C#CCNCCS(=O)(=O)N(Cc1ccc(Br)cc1)[C@@H](C)C(=O)O	6%	1%	-8%
COc1ccccc1CN(C)CC(=O)Nc1ccc(Cl)cc1F	1%	-9%	-9%
C/C(CCCO)=N/Nc1ccc([N+](=O)[O-])cc1[N+](=O)[O-]	3%	-19%	-12%
COC(=O)[C@]1(Cc2ccccc2)N[C@H](CN(C)C(C)=O)[C@@H]2C(=O)N(Cc3ccccc3)C(=O)[C@@H]21	-1%	-17%	2%
COc1ccc(/C=C/c2c(-c3ccc(OC)cc3)oc(=O)c3cc(OC)c(OC)cc23)cc1	-14%	-7%	10%
CCOC(=O)[C@H]1[C@H]2COc3ccccc3[C@@H]2N2C(=O)CN(Cc3ccc(C)cc3)C(=O)[C@@]12C	1%	-4%	50%
COC(=O)C1=C(c2ccc(OC)c(OC)c2)C[C@@H]2CC[C@H]1N2C(=O)NCC1CC1	3%	-15%	-7%
O=C(NCc1ccccc1)C1(CC2CC(c3ccccc3)=NO2)CCNCC1 (stereo not drawn)	-2%	-20%	8%
Cc1onc(-c2ccccc2)c1C(=O)OCC(=O)Nc1ccc(C#N)cc1	0%	-26%	7%
CN1CC[C@]23c4c5ccc(O)c4OC2C(O)C=CC3[C@H]1C5 (stereo partly drawn)	4%	-2%	-6%
COc1ccc(-c2c(-c3ccsc3)oc(=O)c3cc(OC)c(OC)cc23)cc1	-1%	-7%	5%
CCOc1ccc(Br)cc1S(=O)(=O)Nc1cccc(S(=O)(=O)Nc2ccccc2C(=O)O)c1	3%	-8%	8%
COC(=O)[C@]1(C)N[C@H](CN(C)C(=O)c2ccc(C)cc2)[C@@H]2C(=O)N(Cc3ccccc3)C(=O)[C@@H]21	1%	-10%	11%
Cc1cnc(C(=O)OCC(=O)Nc2ccccc2-c2ccccc2)cn1	-24%	-18%	3%
CCNC(=O)C/C(C)=N/NC(=O)C(=O)Nc1ccc(CC)cc1	0%	27%	1%
COc1ccc(C(=O)C(C)OC(=O)c2sc(C)nc2C)cc1 (stereo not drawn)	1%	-25%	19%
Cc1cc(C)cc(OCC(=O)N(Cc2ccco2)c2c(N)n(Cc3ccccc3)c(=O)[nH]c2=O)c1	-3%	-10%	0%
COCCn1c(C)cc(/C=C2/NC(=O)N(c3cccc(Cl)c3)C2=O)c1C	0%	-21%	?
COc1cc2c(cc1O)CCN(C(=O)CSc1nncn1C)[C@@H]2C	-5%	-4%	-3%
COc1ccc(Oc2cc(C)nc(Cl)n2)nn1	7%	7%	-4%
CN(Cc1ccccc1)C(=O)COC(=O)c1cncc(Br)c1	2%	6%	11%
C=CC[C@@H](Cc1ccc(F)cc1)C(=O)OC[C@H]1CCCN1C(=O)[C@@H](CC=C)CC(=O)N[C@@H](CO)Cc1ccccc1	0%	?	-8%
COc1ccc([C@H]2CC(=O)C=C(c3cccc(Cl)c3)C2)cc1OC	1%	?	2%
COC(=O)[C@H](CCSC)NC(=O)Cn1cnc2c(OCc3ccccc3)ncnc21	-2%	10%	-13%
O=C(COC(=O)c1ccc([N+](=O)[O-])cc1)NC12CC3CC(CC(C3)C1)C2	-4%	-10%	5%
O=c1oc(CCCO)cc2ccc(/C=C/c3cccc([N+](=O)[O-])c3)cc12	-12%	28%	2%
CC(=O)C[C@H](O)CC(=O)[C@@H]1OC(=O)CCCCC/C=C/Cc2ccccc21	3%	-2%	21%
CC(C)N(C(=O)[C@H]1CC(CC(=O)NCCN2CCOCC2)C(=O)N2CCc3c([nH]c4ccccc34)[C@]12C)C(C)C (stereo partly drawn)	-2%	-25%	-8%
O=C(COC(=O)c1cc2ccccc2o1)NCc1ccco1	-10%	-8%	-7%
O=C(c1cccc(S(=O)(=O)N2CCc3ccccc32)c1)N1CCc2ccccc2C1	-3%	-22%	-4%
CCN(CC(=O)Nc1ccc(NC(C)=O)cc1)C(=O)CN1C(=O)C2CCCCC2C1=O (stereo not drawn)	2%	-17%	32%
NC(=O)COC(=O)c1cc(-c2cccs2)nn1-c1ccccc1	3%	3%	0%
Nc1n[nH]c(N)c1N=Nc1ccc(F)cc1	6%	50%[activator]	-7%

Arranged by formula weight (highest first): three of the compounds above
SMILES	SARS PLP yeast	2A StopGo	RE007 growth inh
CC(=O)C[C@H](O)CC(=O)[C@@H]1OC(=O)CCCCC/C=C/Cc2ccccc21	3%	-2%	21%
CN(Cc1ccccc1)C(=O)COC(=O)c1cncc(Br)c1	2%	6%	11%
COc1ccc([C@H]2CC(=O)C=C(c3cccc(Cl)c3)C2)cc1OC	1%	?	2%

Continuation:
SMILES	SARS PLP yeast	2A StopGo	RE007 growth inh
Nn1cnnc1SCC(=O)N1CCc2ccccc2C1	-5%	-23%	1%
Brc1ccc(-c2c(-c3ccsc3)sc3ccccc23)cn1	1%	-14%	-2%
O=C(Nc1cccc(Br)c1)c1ccc2c(c1)SC1=NS(=O)(=O)CCN12	-2%	-13%	18%
CC(C)Cn1c(N)c(C(=O)COC(=O)c2ccc(Br)cc2)c(=O)n(C)c1=O	2%	32µM*	-13%
CC(=O)N1CCN(S(=O)(=O)c2cccc(C(=O)Nc3nccs3)c2)CC1	-3%	2%	7%
Cc1cnc(C(=O)OCC(=O)NC(C)c2ccccc2)cn1 (stereo not drawn)	1%	-1%	-3%
CCN(C(=O)CSc1nc2ccccc2c(=O)n1-c1ccccc1F)C1CCS(=O)(=O)C1 (stereo not drawn)	0%	-3%	1%
O=C(CCc1nc2ccccc2c(=O)[nH]1)NNC(=O)c1ccc(F)cc1	-2%[6.58 µM]	-11%	2%
CN(C(=O)c1ccc(NC(=O)Cc2ccc(NC(=O)C3CCCN(C(=O)C4CCCCC4)C3)cc2)cc1)C1CC1 (stereo not drawn)	2%	-24%	-10%
COC(=O)C1=C(C(=O)OC)C(c2cc([N+](=O)[O-])ccc2O)c2sc(=O)[nH]c2S1 (stereo not drawn)	0%	-13%	3%
CCCNC(=O)NC(=O)CSc1cccc(C(F)(F)F)c1	0%	9%	-6%
C=C1C[C@H]2[C@@H]3CCc4cc(OC)ccc4[C@H]3CC[C@]12C	0%	-1%	-6%
CC(C)(O)c1cc2ccc(C#Cc3ccsc3)cc2c(=O)o1	-2%	31%[activator]	-16%
CNC(=O)Cc1nc2ccccc2n1CC(=O)Nc1cc(C)cc(C)c1	3%	-7%	4%
O=C(NCC(c1cccs1)N1CCOCC1)c1ccc(Cl)nc1 (stereo not drawn)	?	-13%	5%
O=C(COc1ccc(F)cc1Cl)Nc1cccc(S(=O)(=O)N2CCCC2)c1	-1%	26%	-1%
COC(=O)/C=C1\SC(N2CCOCC2)=C(c2ccc(OC)cc2)C1=O	-4%	-8%	-3%
Cc1cc(C(=O)COc2ccccc2Cl)c(C)n1C1CC1	4%	35%[activator]	-13%
CCC(C(=O)OCC(=O)c1ccc(OC)cc1OC)c1ccccc1 (stereo not drawn)	6%	35%[activator]	1%
COC(=O)[C@@H](CC(C)C)NS(=O)(=O)N(Cc1ccccc1)[C@@H](CC(C)C)C(=O)OC	0%	-6%	-5%
Cc1ccc(C)c(NC(=O)c2nc(Cl)ccc2Cl)c1	0%	41%[activator]	-6%
NC(=O)C[C@H](NC(=O)c1ccc(Cl)cc1)C(=O)OCc1ccccc1	2%	1%	2%
CC1(C)CC2CC(C)(CN2C(=O)COC(=O)c2ccccc2C(F)(F)F)C1 (stereo not drawn)	-3%	-6%	-6%
Cc1ccc(/C=N/NC(=S)NCCc2ccccc2)s1	7%	6%	7%
NNC(=O)C1CC(O)CN1S(=O)(=O)c1ccc2ccccc2c1 (stereo not drawn)	4%	-3%	-2%
COc1ccc(C(=O)CSc2ccccc2C(=O)O)cc1	4%	4%	8%
CCN(Cc1nc2cc(Cl)ccc2c(=O)[nH]1)C(=O)C1CC(=O)N(c2cccc3ccccc23)C1 (stereo not drawn)	2%	-24%	-18%
Cn1nc(C(=O)Nc2cccc(S(=O)(=O)N3CCCC3)c2)c2ccccc2c1=O	-4%	-11%	5%
COc1ccc(/C=C/C(=O)OCC(=O)NCCC2=CCCCC2)cc1S(=O)(=O)N1CCOCC1	-3%	-27%	3%
O=C(COc1ncnc2ccc(Br)cc12)NC1CCCC1	-5%	-13%	-1%

Limited to RE007 growth inh, for two of the compounds above:
molecule	RE007 growth inh
CCN(Cc1nc2cc(Cl)ccc2c(=O)[nH]1)C(=O)C1CC(=O)N(c2cccc3ccccc23)C1 (stereo not drawn)	-18%
Cn1nc(C(=O)Nc2cccc(S(=O)(=O)N3CCCC3)c2)c2ccccc2c1=O	5%

More compounds
SMILES	SARS PLP yeast	2A StopGo	RE007 growth inh
CC(=O)NC(=S)Nc1cc(C(=O)O)ccc1Cl	1%	-14%	13%
O=C1C=C(c2cc(F)ccc2F)C[C@@H](c2ccc(Cl)cc2)C1	-1%	-21%	-12%
CCN(C[C@H]1N[C@@](CC)(C(=O)OC)[C@H]2C(=O)N(Cc3ccccc3)C(=O)[C@@H]12)S(=O)(=O)c1ccc(C(C)(C)C)cc1	-1%	-16%	57%
O=C(Nc1cccc(S(=O)(=O)N2CCOCC2)c1)c1ccc(N2CCCC2=O)cc1	-3%	-29%	-3%
CCOc1ccc(C(=O)CCC(=O)N2CCN(S(=O)(=O)c3cccc(F)c3)CC2)cc1	8%	-28%	-6%
O=C1CS/C(=C/C(=O)c2cccc(Cl)c2)N1	-4%	26%	-10%
CC[C@@H]1C/C=C\Cc2ccccc2[C@H](C(=O)C[C@H](O)CC(C)=O)OC1=O	2%	0%	-7%
CCOC(=O)C1=CN(Cc2ccco2)S(=O)(=O)NC1c1cccc(OC)c1 (stereo not drawn)	4%	-9%	-4%
COc1cc(/C=N/NC(=O)Cc2csc(C)n2)ccc1OCC(C)C	-1%	-9%	11%
C[C@H](CO)N1C[C@H](C)[C@H](CN(C)C(=O)Nc2cccc3ccccc23)Oc2c(NC(=O)c3ccc(-c4nccs4)cc3)cccc2C1=O	-9%	0%	0%
CCOC(=O)C1CCN(C(=O)COC(=O)c2ccc([N+](=O)[O-])o2)CC1	0%	-9%	-28%
CCN(CC(=O)NCc1ccc(F)cc1)C(=O)/C=C/c1ccco1	4%	1%	13%
CCN(C[C@H]1N[C@@](CC)(C(=O)OC)[C@H]2C(=O)N(Cc3ccccc3)C(=O)[C@@H]12)C(=O)Nc1ccc(Cl)cc1	2%	-13%	4%
CCCCC[C@@H]1C=C(C(=O)O)[C@H](c2ccc3c(c2)OCO3)N1S(=O)(=O)c1ccc(C)cc1	-2%	-14%	7%
Cc1ccccc1N1C(=O)C(Oc2ccc(Cl)cc2)C1CNCC1CCCO1 (stereo not drawn)	-4%	4%	1%
COc1ccc(CN2C(=O)C(CC(C)C)Nc3ncnc(N4CCN(c5ccccc5)CC4)c32)cc1 (stereo not drawn)	2%	-3%&0%	39%&-6%
COc1ccc(S(=O)(=O)N(C)C[C@H]2Oc3c(NC(=O)Nc4c(C)noc4C)cccc3C(=O)N([C@H](C)CO)C[C@@H]2C)cc1	-3%	-2%	-10%
Cc1ccc(S(=O)(=O)N(C)C(C)CCc2ccco2)cc1 (stereo not drawn)	7%	-22%	23%

Exported as comma-separated lines: entries from further up
structure,SARS PLP yeast,2A StopGo,RE007 growth inh
O=C1CS/C(=C/C(=O)c2cccc(Cl)c2)N1,-4%,26%,-10%
CC[C@@H]1C/C=C\Cc2ccccc2[C@H](C(=O)C[C@H](O)CC(C)=O)OC1=O,2%,0%,-7%
CCOC(=O)C1=CN(Cc2ccco2)S(=O)(=O)NC1c1cccc(OC)c1 (stereo not drawn),4%,-9%,-4%

Not all compounds are listed. The share of hits here may be higher or lower than overall.
